Bioassay records from PubChem BioAssay.
Vaccinia Venus: qHTS for Stage-Specific Inhibitors of Vaccinia Orthopoxvirus: Venus Reporter Primary qHTS; Vaccinia virus Venus reporter expression, fluorescence; Potency, µM (series often up to 36.5 µM), for inactives: at the top dose activity change, negative = inhibition, hits mostly inhibitors; 330,000 tested, 0.46% active; active means well fitted inhibition curve with a large enough effect; inconclusive means small, poorly fitted or top-dose-only effect; inactive means no such curve, though single readings can be large or run the other way; tested in A549 cells; also: nearly all actives have a fitted effect of over 30% in size; inactives centre near -10
Vaccinia mCherry: qHTS for Stage-Specific Inhibitors of Vaccinia Orthopoxvirus: mCherry Reporter Primary qHTS; Potency, µM (doses to about 36.5 µM), inactives show top-dose activity change, negative = inhibition, most hits filed as inhibitors; 310,000 tested, 0.63% active; AID 720579, 2013; Vaccinia virus mCherry reporter infection, fluorescence; about a quarter of the inactives have no number; active = well fitted inhibition curve with a large enough effect; inconclusive = small, poorly fitted or top-dose-only effect; inactive = no such curve, though single readings can be large or run the other way; tested in A549 cells; also: nearly all actives have a fitted effect of over 35% in size; inactives centre near -10
An asterisk follows results filed as active; i = inactive; u = inconclusive; x = not tested or not shown; & = joins results of further samples. % is scaled to controls: 0 for no effect and ±100 for the full control effect; potency is read from the fitted curve at half-maximal effect.

Sample of the layout, 4 compounds:
SMILES | Vaccinia Venus | Vaccinia mCherry
Cc1ccc(CN2CCNC(=O)C2CC(=O)O)o1 (stereo not drawn) | -18% | i
CC(Oc1ccc(Cl)cc1Cl)c1ccnc(N)n1 (stereo not drawn) | -6% | -6%
CCn1cc(C(=O)N2CCCCC2)c2ccccc21 | -28% | -10%
Cc1cc(C)n(CCCNC(=O)CN(C)S(=O)(=O)c2ccc(Cl)cc2)n1 | -17% | -23%

The whole of this part, from the first entry:
SMILES | Vaccinia Venus | Vaccinia mCherry
Cc1ccc(CN2CCNC(=O)C2CC(=O)O)o1 (stereo not drawn) | -18% | i
CC(Oc1ccc(Cl)cc1Cl)c1ccnc(N)n1 (stereo not drawn) | -6% | -6%
CCn1cc(C(=O)N2CCCCC2)c2ccccc21 | -28% | -10%
Cc1cc(C)n(CCCNC(=O)CN(C)S(=O)(=O)c2ccc(Cl)cc2)n1 | -17% | -23%
COCCN(Cc1ccccc1)C(=S)Nc1ccc(Cl)cc1 | -12% | -12%
COc1ccc(-c2nn(-c3ccccc3)cc2CNC[C@H]2O[C@@H](n3cnc(C(N)=O)n3)[C@H](O)[C@@H]2O)cc1 | -17% | -11%
O=C(CSCCc1ccccn1)Nc1ccccn1 | -11% | x
CCn1c2ccccc2c2cc(NC(=O)COC(=O)c3ccc(NC(=O)CC#N)cc3)ccc21 | u | u
O=C(Nc1ccc(S(=O)(=O)N2CCCCC2)cc1)c1ccc(CN2CCOCC2)cc1 | u | -29%
CC1=C(C)CC2C(=O)N(c3cccc4ccccc34)C(=O)C2C1 (stereo not drawn) | 1% | -10%
CCn1cc(C(=O)NCCc2ccc(OC)cc2)c(=O)c2ccc(C)nc21 | -3% | u
COCCCn1c(SCC(=O)N2CCCC2=O)nc2ccccc2c1=O | -9% | -2%
CN(C)/C=N/n1cnc2ccccc2c1=O | -22% | i
Nc1nc(SCC(=O)Nc2cccc(Oc3ccccc3)c2)n[nH]1 | -24% | -16%
CCCCN=C(C)C1=C(O)CSC1=O | -12% | -7%
CSc1ccc(Cn2c(C)c(C(=O)NCc3ccc4c(c3)OCO4)sc2=O)cc1 | -5% | i
CC(=O)Nc1ccc(S(=O)(=O)NCCC(=O)OCC(=O)c2cccc(Br)c2)cc1 | -10% | -11%
CCCN1C(=O)c2[nH]nc(-c3ccc(OC)cc3)c2C1c1ccccn1 (stereo not drawn) | -3% | -9%
COc1ccc(-c2cc3ccc(O)cc3oc2=O)cc1OC | -9% | i
C/C(=N\Nc1nc2ccccc2[nH]1)c1ccc(Cl)s1 | u | -16%
NC(=O)C1(N2CCCCC2)CCN(C(=S)Nc2cc(F)cc(F)c2)CC1 | -9% | -3%
COc1ccc(-c2cc(C(=O)NCC3CCCCC3)[nH]n2)c(C)c1 | 6% | 16%
Cc1ccc2c(c1)C(c1ccccc1)N(C(=O)c1ccc(S(=O)(=O)N3CCCCC3)cc1)CC(=O)N2 (stereo not drawn) | -21% | u
O=C(N/N=C/c1ccccc1OCc1ccccc1Cl)c1cccnc1 | 1% | i
Cc1ccc(Nc2nc(Oc3ccc(=O)[nH]n3)nc(N(C)C)n2)cc1 | -27% | x
COC(=O)c1ccsc1NS(=O)(=O)c1ccccc1 | 23% | -3%
Cc1nn(CC(=O)NCc2ccc(Cl)cc2)c(=O)c2cc3sccc3n12 | -2% | -1%
Cc1nn(-c2ccccc2)c(C)c1/C=N/n1c(-c2ccc(C(C)(C)C)cc2)n[nH]c1=S | -22% | x
Cc1cc(C)cc(N(CC(=O)NCc2ccc3c(c2)OCO3)C(=O)CCC(=O)Nc2ccccn2)c1 | -10% | x
Cc1cc(C)c(S(=O)(=O)N2CCCOC2CNC(=O)C(=O)NCCCn2ccnc2)c(C)c1 (stereo not drawn) | 4% | -8%
O=C(Nc1cc(S(=O)(=O)N2CCOCC2)ccc1OCC(F)(F)F)C1CCCC1 | -8% | i
Cc1ccccc1CSc1nnc2[nH]c(=O)cc(-c3ccccc3)n12 | -10% | -14%
COc1ccc(-c2c(-c3ccc4c(c3)OCO4)noc2-c2ccsc2)cn1 | -12% | -1%
C/C(=N\NC(=O)C(=O)Nc1cc(Cl)ccc1Cl)c1ccncc1 | -7% | i
Cc1c(C2=CCN(S(=O)(=O)c3ccc(Br)cc3)CC2)c2ccccc2n1C | -1% | -12%
Cc1ccc(SC(C)C(=O)NCc2cccnc2)cc1 (stereo not drawn) | -14% | i
CC(=O)Oc1ccccc1-c1nc(/C=C/c2ccccc2)no1 | -10% | i
CC1=C(C(=O)Nc2cc(C)ccn2)C(c2ccc(C)cc2)C2=C(CCCC2=O)N1 (stereo not drawn) | -24% | -29%
Cc1cc(NC(=O)CCC(=O)N(CC(=O)NC2CCCC2)c2ccc(F)cc2)no1 | 4% | -9%
CCN1CCCC1CNCc1cccc(OC)c1OCc1ccccc1F (stereo not drawn) | -10% | -12%
CCOC(=O)c1c(C)n(-c2ccccc2)c2ccc(OC(=O)c3c(F)cccc3F)cc12 | -1% | -8%
O=C(Nc1ccc(F)cc1F)C1(c2cccs2)CCOCC1 | -6% | -12%
CCCNc1nc2c(c(=O)n(C)c(=O)n2C)n1CCC(C)C | u | x
CCOC(=O)c1cnc2ccccc2c1Nc1cccc(C(=O)O)c1 | 5% | -1%
COc1ccc(-c2nn(-c3ccccc3)cc2C(=O)Nc2ccc(C(=O)O)cc2)cc1 | -18% | -3%
CC(C)Oc1ccc(C(=O)N2CCN(c3nc4c(F)cc(F)cc4s3)CC2)cc1 | -9% | -1%
CCNC(=O)NC(=O)C(C)OC(=O)c1c(C)nn(Cc2ccccc2)c1Cl (stereo not drawn) | -11% | -16%
CC(=O)N1CCC(O)(c2cccc(C(F)(F)F)c2)CC1 | -7% | i
COC(=O)NNC(=O)c1ccc(Cl)cc1Cl | -8% | i
COc1ccc(NC(=O)CC2SC3=NCCN3C2=O)cc1 (stereo not drawn) | -8% | -5%
O=C1Nc2ccccc2Oc2cc(Oc3ccccc3)ccc21 | -9%&-20% | -13%&-28%
COc1ccc(CC(=O)Nc2cccc(C)n2)cc1OC | 10% | i
COc1ccccc1NC(=O)Cn1c(=O)oc2cc(S(=O)(=O)N3CCCC3)ccc21 | -15% | -4%
COc1ccc(C(=O)N2CCN(C(=O)c3ccncc3)CC2)cc1 | 2% | -11%
Cc1nn(C2CC(O)C(O)C(CO)O2)c(=O)[nH]c1=O (stereo not drawn) | -11% | -6%
Cc1csc(NC(CO)c2nc3ccccc3n2CCOCCO)n1 (stereo not drawn) | -6% | i
O=C(NCCc1csc(-c2ccc(F)cc2)n1)c1cccc(F)c1 | -15% | -25%
O=C(COC(=O)CNC(=O)c1ccc(Cl)cc1)Nc1ccc2c(c1)OCCO2 | -6% | -10%
CCCCNC(=O)c1ccc2c(c1)NC(=O)C(CS(=O)(=O)Cc1ccc(C)cc1)N2 (stereo not drawn) | -5% | -1%
COc1ccc(C2=NS(=O)(=O)N(C)C(C(=O)N3CCOCC3)=C2)cc1 | -1% | i

Reformatted: entries from further up
Screens in order – Vaccinia Venus, Vaccinia mCherry
- CSc1ccc(Cn2c(C)c(C(=O)NCc3ccc4c(c3)OCO4)sc2=O)cc1
 : -5%, i
- CC(=O)Nc1ccc(S(=O)(=O)NCCC(=O)OCC(=O)c2cccc(Br)c2)cc1
 : -10%, -11%
- CCCN1C(=O)c2[nH]nc(-c3ccc(OC)cc3)c2C1c1ccccn1 (stereo not drawn)
 : -3%, -9%
- COc1ccc(-c2cc3ccc(O)cc3oc2=O)cc1OC
 : -9%, i
- C/C(=N\Nc1nc2ccccc2[nH]1)c1ccc(Cl)s1
 : u, -16%

Following part
SMILES | Vaccinia Venus | Vaccinia mCherry
CCOC(=O)N(C)[C@H]1C[C@H]2c3[nH]c4ccccc4c3CCN2C[C@H]1[C@H](C)O | -6% | 4%
O=S(=O)(/C=C/c1ccccc1)NCc1ccccc1Cl | -8% | i
CCOC(=O)Cc1csc(NC(=O)CN2C(=O)c3ccccc3C2=O)n1 | 0% | -7%
O=C(Nc1ccc(SC(F)(F)F)cc1)c1ccccn1 | -8% | i
COc1ccc(S(=O)(=O)N2CCN(CC(=O)Nc3ccc(F)c(F)c3)CC2)cc1 | -22% | x
Cc1ccccc1NC(=O)Cn1c(=O)n(Cc2ccc3c(c2)OCO3)c(=O)c2ccccc21 | -3% | -14%
COc1ccc(CNc2cc(-c3ccccc3CN(C)C)ncn2)c(OC)c1 | -3% | -13%
Cc1ccc(C)c(Cn2cnc3ccccc3c2=O)c1 | 3% | 2%
CCCCCSc1nc(C)c(CC(=O)O)c(=O)[nH]1 | -4% | -8%
C1CN(c2nc3nonc3n3nnnc23)CCO1 | 0% | -1%
Cc1cc(C(=O)NCc2nnc3n2CCN(Cc2ccc4c(c2)Cc2ccccc2-4)CC3)c(C)o1 | -6% | -10%
O=S1(=O)CCN(C2CCCC2)CC1 | -7% | i
CCn1c(-c2ccccc2F)nc2cc(C(=O)NCc3ccc(C)o3)cc(NC(C)=O)c21 | -15% | i
Cc1cc(C)cc(OCc2nnc(N)s2)c1 | -25% | -2%
CC(C)(C)N1C(=O)c2ccccc2NC(=O)C1C(=O)Nc1ccc(N2CCOCC2)cc1 (stereo not drawn) | -14% | -18%
Cc1ccc(C(=O)NCCCn2ccnc2)cn1 | -7% | i
C/C(=N\NC(=O)CC#N)C1COc2ccccc2O1 (stereo not drawn) | 2% | -6%
CCc1ccc(C(=O)c2cn(CC(=O)Nc3ccc(OC)c(OC)c3)c3ccc(C)cc3c2=O)cc1 | -15% | -15%
Cc1cccc(OCc2nnc(SCC(=O)O)n2Cc2ccccc2)c1 | -6% | 4%
COc1cccc(N2CCN(C(=O)CN3CCSc4ccc(S(=O)(=O)N(C)C)cc43)CC2)c1 | 4% | 6%
Cc1ccc(C)c(NS(=O)(=O)c2cc(C(=O)NCc3ccco3)ccc2C)c1 | -22% | -3%
CC(=O)c1ccc(Nc2ccc3cc(S(=O)(=O)N4CCCC4)ccc3n2)cc1 | -19% | -22%
Cc1ccccc1NC(=O)c1ccc(NC(=O)N2CCSc3ncccc32)cc1 | 0% | -13%
COc1cccc(CNC(=O)c2cc3cccc4c3n2CC(C)S4)c1OC (stereo not drawn) | -16% | -21%
CCOC(=O)[C@]12CCC=C1N(Cc1ccco1)C(=O)[C@H](CC(=O)NCCCCc1ccccc1)C2 | -3% | -3%
FC(F)(F)c1ccc(-c2nc(=S)[nH][nH]2)cc1 | 2% | u
Fc1ccc(/C=N/c2c(-c3ccc(F)cc3)nc3n2CCS3)cc1 | -19% | x
CCNC(=O)C1(C)CCCN(C(=O)/C=C/c2ccccc2)C1 (stereo not drawn) | -7% | 26%
COc1ccc(CCn2c(=O)[nH]c3cc(C(=O)N4CCN(c5ccccn5)CC4)ccc3c2=O)cc1OC | -2% | -17%
COCC1CCN(Cc2nc(-c3cccs3)no2)C1 (stereo not drawn) | 10% | 0%

Random excerpt: three entries already listed
SMILES | Vaccinia Venus | Vaccinia mCherry
COc1cccc(CNC(=O)c2cc3cccc4c3n2CC(C)S4)c1OC (stereo not drawn) | -16% | -21%
CCCN1C(=O)c2[nH]nc(-c3ccc(OC)cc3)c2C1c1ccccn1 (stereo not drawn) | -3% | -9%
O=C1Nc2ccccc2Oc2cc(Oc3ccccc3)ccc21 | -9%&-20% | -13%&-28%

(continued)
SMILES | Vaccinia Venus | Vaccinia mCherry
CCc1ccc(N2C(=O)C3NN=C(C(=O)OCc4ccccc4)C3C2=O)cc1 (stereo not drawn) | -1% | 5%
Cc1c(C(=O)NC(C)CCc2ccccc2)cccc1[N+](=O)[O-] (stereo not drawn) | -12% | i
COC(=O)N/N=C/c1ccc(-c2cccc(Cl)c2)o1 | -6% | -16%
COc1ccc(NC(=O)Cc2coc3cc(C)c(C(C)C)cc23)cc1S(=O)(=O)N1CCOCC1 | u | u
Cc1ccc2nc(-c3ccccc3)cc(C(=O)NCC(c3ccco3)N(C)C)c2c1 (stereo not drawn) | -22% | -4%
COc1ccc(CNC(=O)c2cc3c(C)nc4ccccc4c3o2)c(OC)c1 | u | -19%
Cc1cccc(CS(=O)(=O)CC2Nc3ccc(C(=O)NCc4ccccc4)cc3NC2=O)c1 (stereo not drawn) | u | u
Cc1ccc(C)c(/C(O)=C2\C(=O)C(=O)N(CCCn3ccnc3)C2c2cccnc2)c1 (stereo not drawn) | -7% | x
CCN1C(=O)/C(=C\N2CCN(c3ccccc3)CC2)SC1=S | -12% | -15%
Cc1ccc(-n2cc(CNCCCn3ccnc3C)c(-c3ccc(F)cc3)n2)cc1 | u | u
COc1ccc(N2CCN(C(=O)c3cnn(-c4ccc(OC)cc4)c3C3CCN(C(=O)OC(C)(C)C)CC3)CC2)cc1 | -5% | -14%
N#Cc1c(Cl)cccc1Oc1ccc(S(=O)(=O)Nc2ccccc2)cc1 | -7% | i
CC(=O)c1cccc(NC(=O)CO/N=C2/CCCc3nonc32)c1 | 8% | 3%
O=C1CC(c2ccco2)CC(O)=C1C=NCCO (stereo not drawn) | -9% | -11%

No enrichment for hits; 0.82% or so of the library scored in one or more.
